High-throughput results (PubChem)
Calb FLC = affects C. albicans growth with fluconazole | C. albicans CaCi-2 (fluconazole-resistant clinical isolate) + fluconazole, Alamar Blue growth, 48 h | AID 1979 | 0.57% of 300,000 active | growth inhibition, % (test concentration not listed);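 active = most replicates above 75%; inconclusive = exactly half above 75%; inactive = most below 75%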;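 also: all wells also contain fluconazole at 8 µg/ml as a sub-toxic cotreatment; 0% = median of DMSO wells and 100% = median of geldanamycin control wells; wells of about 8 µL received 7.5 nL stock; the first replicate is given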
A1 inh = inhibitors of the anti-apoptotic protein A1, read as caspase activation; MEF A1-2A-BIM cells, Caspase-Glo 3/7 luminescence, 3 h; percent of clofoctol response, vehicle zero; caspase activation, % (concentration not given with the values); 0.066% of 330,000 active;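 active = over half of replicate activation scores above 10%, or exactly half above 10 with the replicate mean above 10; inconclusive = replicate mean below 10 yet half the replicates above 10; inactive = over half of replicates below 10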;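 also: wells of about 30 µL received 50 nL stock; many hits fall short of the cut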
ALR H2O2 inh = blocks human ALR sulfhydryl oxidase activity | inhibition, % (no concentration beside the values) | 3.8% of 290,000 active | purified ALR, DTT oxidation, H2O2 HRP-luminol luminescence | AID 485317 | P55789;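 active = mean and each replicate at 75% or more; inconclusive = only one of the two met; inactive = neither met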;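 also: stock transfer was 7.5 nL into about 7.5 µL; 0% = neutral wells and 100% = wells with inactivated enzyme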
T cruzi repl = T. cruzi replication inhibition | T. cruzi beta-gal in NIH3T3, luminescence, 90 h | inhibition, % (no concentration beside the values) | 1.4% of 300,000 active | AID 1885;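 active = mean inhibition across valid replicates above about 55%, limit read from the data; inconclusive = mean below that limit but half or more replicates reach it; inactive = mean below it, under half of replicates reach it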;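 also: signal also drops with host cell toxicity which is not excluded here; 0% = plate median of DMSO wells and 100% = zero luminescence signal; higher percent means less beta-gal luminescence so fewer parasites; stock transfer was 50 nL into about 50 µL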
Beta2AR agonist = activates human beta-2 adrenergic receptor causing internalization | Am2.2-beta2AR cells, FAP receptor internalization, flow cytometry; reference of the scale not given here | response, % (no concentration beside the values) | 0.43% of 340,000 active | AID 504454;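 active = response above a set limit, near 3 SD of response in nonfluorescent compounds, cut at about 42% in these data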;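 also: stock transfer was 100 nL into about 11 µL; a reference agonist was the positive control; negative values mostly stem from fluorescent compounds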
LANA-H2B inh = blocks KSHV LANA binding to histone H2A/H2B; Q9QR71; cell-free LANA-H2A/H2B peptide, fluorescence polarization; inhibition, % (no concentration beside the values); 0.6% of 320,000 active; AID 2629; in the data active = inhibition mostly above about 10%, no sharp cut-off; inactive = mostly below about 6.7%;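 also: stock transfer was 7.5 nL into about 10 µL; 0% = median of vehicle wells and 100% = median of positive control wells; one replicate is shown; the record names a cut of 25% in any replicate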
Target sequence (Q9QR71 whole entry, looked up): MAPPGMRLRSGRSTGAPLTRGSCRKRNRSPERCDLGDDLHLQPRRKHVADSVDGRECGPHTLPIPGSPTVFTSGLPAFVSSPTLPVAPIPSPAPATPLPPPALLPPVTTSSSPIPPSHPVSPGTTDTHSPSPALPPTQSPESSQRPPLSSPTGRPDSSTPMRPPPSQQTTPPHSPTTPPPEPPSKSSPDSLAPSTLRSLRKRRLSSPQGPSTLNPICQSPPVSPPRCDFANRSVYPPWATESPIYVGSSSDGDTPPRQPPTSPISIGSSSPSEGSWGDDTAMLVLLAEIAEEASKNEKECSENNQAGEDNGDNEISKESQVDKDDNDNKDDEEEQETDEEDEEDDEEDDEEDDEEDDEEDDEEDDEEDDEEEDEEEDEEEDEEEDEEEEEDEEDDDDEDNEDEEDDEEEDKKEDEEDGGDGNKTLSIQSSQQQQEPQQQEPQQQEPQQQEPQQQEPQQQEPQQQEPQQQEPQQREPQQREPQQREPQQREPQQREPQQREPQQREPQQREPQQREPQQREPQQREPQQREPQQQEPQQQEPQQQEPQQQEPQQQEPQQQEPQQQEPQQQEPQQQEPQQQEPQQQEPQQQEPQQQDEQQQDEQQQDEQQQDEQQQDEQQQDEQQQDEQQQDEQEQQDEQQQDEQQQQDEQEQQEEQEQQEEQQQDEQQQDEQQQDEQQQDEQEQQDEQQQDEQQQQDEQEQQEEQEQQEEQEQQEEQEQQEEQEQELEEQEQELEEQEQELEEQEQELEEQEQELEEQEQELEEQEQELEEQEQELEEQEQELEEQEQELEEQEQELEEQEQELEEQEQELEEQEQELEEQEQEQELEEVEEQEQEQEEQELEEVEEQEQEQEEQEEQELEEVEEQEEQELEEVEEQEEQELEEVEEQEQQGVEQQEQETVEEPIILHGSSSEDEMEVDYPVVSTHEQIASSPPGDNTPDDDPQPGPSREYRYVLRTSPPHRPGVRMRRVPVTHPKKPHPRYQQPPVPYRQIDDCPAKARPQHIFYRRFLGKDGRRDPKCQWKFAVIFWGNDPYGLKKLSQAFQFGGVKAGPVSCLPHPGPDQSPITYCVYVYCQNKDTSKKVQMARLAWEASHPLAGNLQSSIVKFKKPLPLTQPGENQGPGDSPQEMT
Beta cell apopt = blocks beta cell apoptosis; INS-1E cytokine-induced death, ATP luminescence, 48 h; percent of positive-control rescue, neutral wells zero; protection from apoptosis, % (test concentration not listed); 0.8% of 300,000 active; AID 435005;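 active = all replicates at 75% or more, or half of them and the mean; inconclusive = half reach 75% but not the mean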;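 also: 0% = cytokine-treated negative control wells and 100% = positive control rescue; higher means more ATP so stronger rescue from cytokine killing; wells of about 40 µL received 100 nL stock; the first replicate is given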
Ecoli rRNA inh = inhibitors of bacterial rRNA selective over humanized ribosomes | E. coli WT GFP vs humanized-ribosome RFP mutants, fluorescence, 24 h; hits give low values; DMSO median 0, no signal -100 | GFP signal change (wild-type ribosome), % (test concentration not listed) | 1.6% of 350,000 active | AID 720706;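 active = significant combined selectivity score with lowered wild-type GFP, culture density cut under 30%, mutant RFP and density less affected; inactive = any of these conditions unmet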; also: one replicate is shown; some compounds called inactive have numbers as strong as hits
Ecoli rRNA inh OD600 = second read-out of Ecoli rRNA inh, no call of its own (marks repeat the call); OD600 change, %; measured here: OD600 growth;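 optical density of the mix in the first replicate; 0 = DMSO median and -100 = no signal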
Ecoli rRNA inh RFP = recorded beside Ecoli rRNA inh, whose call it bears; RFP signal change, %; measured here: RFP humanized mutant strains;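 first replicate; 0 = DMSO median and -100 = no signal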
An asterisk follows results filed as active; ? = inconclusive; . = no result given. Not all compounds are listed. The share of hits here may be higher or lower than overall.

SMILES	Calb FLC	A1 inh	ALR H2O2 inh	T cruzi repl	Beta2AR agonist	LANA-H2B inh	Beta cell apopt	Ecoli rRNA inh	Ecoli rRNA inh OD600	Ecoli rRNA inh RFP
O=C(O)c1c(-n2cccc2)sc2c1CCCC2	1	-0.9	8	-8	0	-2.1	.	-44*	-35*	-3.6*
CCOc1cc(C(=O)O/N=C(\N)c2ccc([N+](=O)[O-])cc2)cc(OCC)c1OCC	18	0.5	.	25	7	0.7	0	.	.	.
Cc1cc(C)cc(N2CCCn3c2nc2c3c(=O)n(CC(=O)OCc3ccccc3)c(=O)n2C)c1	-14	-0.3	-20	23	18	5.2	8	.	.	.
Cc1cc(C(=O)N/N=C2\CC(=O)CC(C)(C)C2)c(C)n1-c1ccccc1	-17	-0.1	3	25	9	6.2	1	-1	-1	26
O=C(COc1ccc([N+](=O)[O-])cc1)Nc1ccc2c(c1)CCC2	.	-0.4	.	.	7	-0.5	-2	-47	-63	-7.4
C=CCc1cccc2cc(C(=O)N(C)C)c(=O)oc12	-2	0.3	-12	-6	4	11	-7	11	-2	-1.2
COc1ccc(CCNC(=O)c2c(C)nn(-c3ccccc3)c2Cl)cc1OC	1	-1.0	1	-3	-5	5.2	.	-9	-17	1.2
Cc1ccc(C2Nc3ccccc3C(=O)N2Cc2ccco2)cc1 (configuration not stated)	-7	1.6	0	1	0	-2.8	5	.	.	.
O=[N+]([O-])c1cc(S(=O)(=O)NC2=NCCCCC2)ccc1Cl	-9	0.5	.	51	8	0.9	-17	10	12	-0.9
Cc1nnc(SCCn2c(N(C)Cc3ccccc3)nc3c2c(=O)[nH]c(=O)n3C)s1	5	0.2	-8	-1	-12	3.1	-7	-4	-14	-11
Cc1cc(NC(=O)CCc2ccc(C)o2)no1	0	0.8	23	-2	-6	1.6	-2	.	.	.
O=C(NCc1ccccc1F)C1CCCN(C(=O)NC2CCCCC2)C1 (configuration not stated)	-3	-1.3	22	0	-1	1.0	.	.	.	.
COc1ccc(/C=C/C(=O)NC(=S)N2CCN(c3ccccn3)CC2)cc1	-1	1.0	-18	-11	0	3.0	-2	-12	-5	-5.1
CN(C)c1ccc(O)c2c1CC1CC3[C@@H](N(C)C)C(=O)C(C(N)=O)=C(O)[C@]3(O)C(=O)C1=C2O (some centres not stated)	.	-0.4	.	-15	10	-0.1	-11	-56	-74	-14
Cc1onc(-c2c(F)cccc2Cl)c1C(=O)NCCO	29	0.6	3	1	8	-1.6	-5	6	-5	-2.3
O=c1[nH]c(=O)n([C@H]2C[C@H](O)[C@@H](CO)O2)cc1Br	.	0.0	0	.	-1	3.1	-2	-1	-3	1.4
CCN1CCN(C(c2ccccc2)c2nnnn2Cc2ccc3c(c2)OCO3)CC1 (configuration not stated)	-9	0.2	0	24	7	-1.2	0	12	9	1.4
COCc1ccc(CN2CCCCC2C(=O)Nc2ccc(Oc3ccccc3)nc2)o1 (configuration not stated)	1	-0.2	-3	2	-3	-5.1	-5	-3	-1	-1.2
Cc1ccc(OCCSCc2nc3ccccc3[nH]2)cc1	-6	-0.5	-6	-6	-2	0.1	2	.	.	.
O=C(c1cn(-c2ccccc2)nc1-c1cccc(Br)c1)N1CCOCC1	27	1.9	-5	5	-6	-1.0	-1	-35	-49	-4.3
Cc1c(Cl)cccc1NC(=O)C1COc2ccccc2O1 (configuration not stated)	-3	0.4	-3	0	-1	-4.4	.	-23	-23	-6.6
CSc1ccccc1NC(=O)Cn1ccsc1=N	5	0.1	-5	-13	5	11*	1	7	7	0.4
O=C(c1ccco1)N1CCN(C(=S)NCc2ccc(F)cc2)CC1	12	0.5	2	-1	-21	-1.1	-2	-4	-28	-2.5
CCOC(=O)c1sc(NC(=O)CCN2CCOCC2)c(C(=O)OCC)c1C	12	0.2	?	-4	-2	3.5	-2	.	.	.
Clc1ccc(COn2c(-c3ccc(Cl)cc3)nc3ccccc32)cc1	6	-0.5	-7	46	8	4.2	10	.	.	.
CC(=O)C1C(c2ccc(Br)cc2)c2c(noc2C)CC1(C)O (configuration not stated)	-19	-1.4	-4	-1	1	-3.3	-4	.	.	.
CS(=O)(=O)Nn1cnc2ccccc2c1=O	-6	0.7	0	-10	8	2.7	-1	.	.	.
Fc1ccc(Oc2nnnn2-c2ccccc2)cc1	-18	0.8	-15	-3	-1	2.8	-7	6	2	0.1
COc1ccc2nc(C)cc(N3CCOCC3)c2c1	2	0.9	-7	-10	2	8.5	3	.	.	.
CC1(CCc2ccccc2)NC(=O)N(CC(=O)Nc2ccc(S(N)(=O)=O)cc2)C1=O (configuration not stated)	-9	-0.1	-4	-9	0	0.9	-2	8	5	-3.4

Reformatted in markdown: part of the list above.
| smiles | Calb FLC | A1 inh | ALR H2O2 inh | T cruzi repl | Beta2AR agonist | LANA-H2B inh | Beta cell apopt | Ecoli rRNA inh | Ecoli rRNA inh OD600 | Ecoli rRNA inh RFP |
| --- | --- | --- | --- | --- | --- | --- | --- | --- | --- | --- |
| COc1ccc2nc(C)cc(N3CCOCC3)c2c1 | 2 | 0.9 | -7 | -10 | 2 | 8.5 | 3 | . | . | . |
| CCN1CCN(C(c2ccccc2)c2nnnn2Cc2ccc3c(c2)OCO3)CC1 (configuration not stated) | -9 | 0.2 | 0 | 24 | 7 | -1.2 | 0 | 12 | 9 | 1.4 |
| O=c1[nH]c(=O)n([C@H]2C[C@H](O)[C@@H](CO)O2)cc1Br | . | 0.0 | 0 | . | -1 | 3.1 | -2 | -1 | -3 | 1.4 |

Later entries
SMILES	Calb FLC	A1 inh	ALR H2O2 inh	T cruzi repl	Beta2AR agonist	LANA-H2B inh	Beta cell apopt	Ecoli rRNA inh	Ecoli rRNA inh OD600	Ecoli rRNA inh RFP
OC(CNCc1ccncc1)c1ccccc1 (configuration not stated)	-5	1.6	-8	-3	5	1.6	.	14	12	1.1
N#Cc1ccc(NC(=O)CSc2n[nH]c(=O)n2C2CC2)cc1	.	-0.2	26	.	12	2.5	-4	-2	0	-5.4
COc1ccccc1CNCC(=O)Nc1cc(S(=O)(=O)N2CCOCC2)ccc1Cl	.	-0.4	2	.	25	-0.1	13	-2	2	7.1
O=C(/C=C/c1ccccc1)NC1CCSC1=O (configuration not stated)	3	0.3	-4	-8	-2	-0.3	-8	.	.	.
O=C(CSc1nc2cc(Cl)ccc2s1)c1ccco1	-8	-0.2	9	18	2	-8.9	-11	-21*	13*	1.6*
FC(F)(F)c1cccc(CNC2c3ccccc3-c3ccccc32)c1	-17	-0.5	-7	13	13	-0.9	-3	9	13	-3.6
Cc1ccc2c(c1)cc(CN(Cc1cccnc1)C(=O)c1ccccc1)c1nnnn12	10	-0.2	-9	21	-7	-3.2	1	19	2	4.2
CCC(CC)C(=O)Nc1ccc(C(=O)Nc2cc(C)on2)cc1	1	-1.1	-8	-8	-3	-3.0	3	5	-4	-2.6
O=C(NCc1ccc(F)cc1)c1c(O)c2cccc3c2n(c1=O)CCC3	2	0.9	11	1	-1	2.4	1	.	.	.
CC1CCCCN1S(=O)(=O)c1cccc2cccnc12 (configuration not stated)	4	1.0	3	2	-4	-3.6	.	-2	-14	-1.7
COc1ccc2ccc(Oc3ncccn3)cc2c1	4	-0.1	11	-10	-3	-0.1	-7	.	.	.
CN(C(=O)c1nc(-c2ccccc2)n(-c2ccccc2)n1)C1CCS(=O)(=O)C1 (configuration not stated)	-7	0.5	0	0	0	4.0	-4	10	7	2.1
CCCc1ccc(Oc2cc(NN3CCCCC3)c([N+](=O)[O-])cc2[N+](=O)[O-])cc1	6	-0.7	1	-3	0	1.0	-4	8	14	-5.3
CC(C)(C)C(=O)Cn1c(=O)n(-c2ccc(F)cc2F)c(=O)c2sccc21	9	-0.3	2	-10	10	0.1	-9	6	8	-2.0
Nc1ccccc1Nc1cc(-c2ccccc2)nn1-c1cccc(Cl)c1	-14	0.9	-4	58*	8	6.0	12	3	5	0.9
COc1ccc(S(=O)(=O)N2CCN(C)CC2)cc1	-10	-0.7	-5	-2	-1	-2.6	.	13	7	-0.1
CCCC(=O)C1=C(O)C(C(=O)OC)C(C)(C)CC1=Nc1ccc(N)cc1 (configuration not stated)	-13	0.2	-2	4	1	0.0	-5	.	.	.
Cc1ccc(NC(=O)CS(=O)CC(=O)N2CCN(C3CCCC3)CC2)cc1 (configuration not stated)	-3	-0.5	.	1	-1	-0.7	-2	5	4	-2.5
CC(C)[C@H](NC(=O)c1ccccc1)C(=O)OCc1nc2scc(-c3ccccc3)c2c(=O)[nH]1	3	-0.2	.	-5	7	2.2	4	.	.	.
O=C(c1ccccc1)c1cccc(NC(=O)c2ccco2)c1	-19	-0.1	15	2	-10	-2.3	3	.	.	.
COc1ccccc1Nc1nc(N)nc(CSc2nncn2C)n1	19	0.3	-4	-11	5	-5.4	-4	.	.	.
COCCN(C(=S)Nc1cccc(C)c1C)C(C)c1ccco1 (configuration not stated)	0	-0.3	-21	1	-5	-3.1	-6	6	2	-1.6
O=C(CN1CCCc2ccccc21)N/N=C/c1ccc(F)cc1F	-2	0.2	21	1	1	6.7	-2	-6	-3	-0.8
COc1cccc(OCc2nnc(SC)n2C)c1	4	0.1	-2	-6	-7	0.5	-2	.	.	.
CC1CN(C(=O)c2cccc(S(=O)(=O)N3CCOCC3)c2)CC(C)O1 (configuration not stated)	-7	0.2	0	3	-1	3.2	-2	.	.	.
COCCNC(=O)c1cccc(OC2CCN(Cc3cccc(C(C)=O)c3)CC2)c1	-7	1.2	-4	19	-2	-4.3	2	18	11	3.0
O=C(O)Cc1csc(Nc2cccc(Cl)c2)n1	10	-0.3	74	11	2	1.0	.	.	.	.
Cc1cc(Cl)c2oc(C(=O)N3CCCCC3CCN3CCCC3=O)c(C)c2c1 (configuration not stated)	-4	-0.7	4	12	3	-11	2	-21	-30	-1.3
O=C(C1CC1)N1CCc2sccc2C1c1ccc(Cl)cc1 (configuration not stated)	-26	0.1	-13	2	-2	2.9	-6	-48	-68	-6.3
CCC1C(=O)N=C(SCC(=O)Nc2nc3ccccc3s2)NC1=O (configuration not stated)	6	0.0	99*	-5	11	-1.8	-2	21	15	4.0
CCCc1cc(C(=O)Nc2nnc(C)s2)cs1	18	-0.5	0	-6	-15	4.3	-3	.	.	.
COc1ccccc1N1CCN(C(=O)c2cc3cc(C)ccc3[nH]2)CC1	-20	0.3	-18	21	4	15*	3	4	2	-1.3
CCOC(=O)C1CCN(S(=O)(=O)Cc2ccc(Cl)cc2)CC1	-10	0.3	6	-8	-1	0.0	.	.	.	.
C=C1CCN([C@H](C(=O)O)C(C)C)S(=O)(=O)c2ccccc21	-2	-0.4	-2	-1	2	1.6	-8	8	5	5.0
N#CCCCSc1nnnn1-c1cccc(Cl)c1	1	1.5	-2	-4	6	-0.6	-8	.	.	.
Cc1ccc(CN2CCN(Cc3c[nH]c4ccccc34)CC2CCO)o1 (configuration not stated)	-4	0.2	5	-9	9	0.8	-5	6	5	-2.6
CCNC(=O)c1sc(=S)n(CC)c1N	-6	0.0	99*	-18	18	-2.6	-3	.	.	.
CCC(CO)Oc1cc(NC(=O)c2cccc(C)c2)c2ncn(C(C)C)c2c1 (configuration not stated)	.	-0.1	-44	.	-6	-1.2	1	-16	-15	-4.6
